From PubChem
Sa growth inh: S. aureus growth inhibition at 42 and 30 °C, primary screen, LtaS inhibitor project, RN4220, two temperatures. OD600, 20 h, 42 °C; active compounds read low. relative growth, % (test concentration not listed). 170,000 tested, 0.53% active. AID 720641, 2013;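 active = growth at 42 °C up to 50% and 20 or more points under that at 30 °C, or under 10% at both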;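 also: 300 nL library stock went into each well; scaled to the means of positive and negative controls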
HCMV UL50-53 inh: inhibitors of HCMV UL50-UL53 interaction, biochemical, HTRF; normalized percent inhibition; HCMV UL50-UL53 nuclear egress complex (human cytomegalovirus); 190,000 tested, 0.15% active; inhibition, % (no concentration beside the values);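 active = both replicates at 50% or more, plus weaker picks with an unusually low signal ratio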;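 also: stock transfer was 100 nL into about 20 µL; 0% = negative control wells and 100% = wells with untagged competitor protein; inactives centre near -12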
GIV-Gai inh: inhibitors of GIV peptide binding to Galpha-i3, primary screen, biochemical, fluorescence polarization, FITC-GIV GBA peptide, rat Galphai3. 210,000 tested, 0.42% active. Guanine nucleotide-binding protein G(i) subunit alpha-3 (Rattus norvegicus), P08753. percent of control (FP), % (test concentration not listed). 90 min; active compounds read low; scaled: aluminum fluoride 0%, vehicle 100%;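 active = replicate mean at 85% of control or lower, very high polarization wells dropped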;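 also: lower values mean more displacement of the GIV peptide from Galpha-i3; wells of about 15 µL received 100 nL stock; the first replicate is given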
Target sequence (P08753 whole entry, looked up): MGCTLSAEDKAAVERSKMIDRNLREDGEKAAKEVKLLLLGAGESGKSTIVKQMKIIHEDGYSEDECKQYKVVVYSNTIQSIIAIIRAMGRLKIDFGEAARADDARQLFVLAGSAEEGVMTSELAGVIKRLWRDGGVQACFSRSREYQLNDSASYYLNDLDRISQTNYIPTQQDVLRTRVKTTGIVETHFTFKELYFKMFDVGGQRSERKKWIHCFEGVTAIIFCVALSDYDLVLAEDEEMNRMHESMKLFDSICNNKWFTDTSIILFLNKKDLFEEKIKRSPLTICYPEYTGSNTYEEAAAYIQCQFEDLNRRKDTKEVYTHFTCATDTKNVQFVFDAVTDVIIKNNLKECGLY
Sa growth inh second temp: second read-out of Sa growth inh, no call of its own (marks repeat the call); relative growth, %; measured here: growth at 30 °C;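 optical density after 20 h as mean of two plates; 100% = untreated growth and lower means inhibition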
Numbers without * were called inactive; . = no result given; & = joins results of further samples. This is a random part of the collection; 0.8% or so of the library scored in one or more.

item | Compound | Sa growth inh | Sa growth inh second temp | HCMV UL50-53 inh | GIV-Gai inh
1 | Cc1ccc(C(=O)OC2CCCN(C)C2)cc1 (configuration not stated) | 96.7 | 85.0 | -13.5 | .
2 | Cc1nc2nc3c(c(Nc4ccc(Cl)cc4)n2n1)CCCC3 | . | . | -21.0 | 100.4
3 | O=C1CSC2(C(=O)N(CN3CCCCC3)c3ccccc32)N1c1ccccc1 (configuration not stated) | 87.7 | 97.5 | . | 101.4
4 | CNC(=O)c1nc(N2CCCCC2)sc1N | . | . | -27.9 | 103.0
5 | COc1cc(/C=C2\C(=O)NC(=S)N(c3ccc(Cl)cc3)C2=O)c([N+](=O)[O-])cc1OC | . | . | -50.5 | 103.6
6 | S=C=NCCn1ccc2ccccc21 | 25.6 | -0.4 | 10.6 | 105.6
7 | Cn1cc(S(=O)(=O)N2CCCCC2)cc1C(=O)NC1CCCCC1 | . | . | -20.9 | 102.8
8 | O=C(CC1CCCC1)Nc1noc2ccccc12 | 83.6 | 69.2 | . | 102.1
9 | Cc1cc(-n2cnc(-c3cn(C)nc3C)n2)no1 | 94.2 | 94.7 | -12.2 | 100.3
10 | Cc1cccc(-c2nc(CCNC(=O)c3ccc(Br)o3)cs2)c1 | 83.7 | 63.2 | . | 100.9
11 | O=C(Cn1c(=O)c2cccn2c2ccccc21)NC1CCCC1 | 111.2 | 89.0 | . | 104.8
12 | CCc1ccc(C(=O)Nc2nccs2)cc1 | 112.3 | 92.7 | . | 104.8
13 | CCN(CC)NC(=S)Nc1ccccc1 | 65.7 | 83.4 | 12.8 | 102.6
14 | O=C(Nc1ccccc1C(=O)N1CCc2ccccc2C1)c1ccccc1 | 113.0 | 80.4 | -17.9 | 92.6
15 | Cc1cccc(-c2c3c(=O)n(C)c(=O)n(C)c3c3cnc4ccccc4n23)c1 | 102.5 | 96.7 | -29.3 | 102.1
16 | Cc1c(CNC2CCCCCC2)c(C(=O)O)c(C)n1Cc1cccc(Cl)c1 | 81.1 | 91.6 | 15.9 | 107.4
17 | N#Cc1c(NC(=O)C2CC(=O)NN2Cc2ccccc2)sc2c1CCCC2 (configuration not stated) | 112.2 | 72.3 | -8.9 | 105.0
18 | COc1ccc(C(=O)Nc2cc(C)c(O)c(-c3nc4ncccc4o3)c2)cc1Cl | . | . | -22.3 | 104.1
19 | COc1ccc(CNC(=O)CC2N=C3c4ccccc4N=C(SCC(=O)Nc4ccc(N(C)C)cc4)N3C2=O)cc1 (configuration not stated) | 96.8 | 81.4 | . | 101.9
20 | COc1ccccc1C(=O)Nc1cccc(OCc2cc(=O)n3ccccc3n2)c1 | 101.5 | 89.8 | . | 101.1
21 | COc1ccccc1CCNC(=O)C(=O)NCC(c1cccs1)S(=O)(=O)c1ccc(F)cc1 (configuration not stated) | 139.4 | 86.5 | . | 95.8
22 | Cc1csc(NC(=O)c2ccco2)c1C(=O)c1ccccc1 | 89.2 | 81.2 | -20.9 | 103.0
23 | O=C(OCc1ccc(C#Cc2ccccc2)s1)c1cccs1 | 103.9 | 91.2 | -22.9 | 103.0
24 | CCOC(=O)C1=C(C)N=c2s/c(=C/c3ccc4c(c3)n(C)c(=O)n4C)c(=O)n2C1c1ccc(OC)cc1 (configuration not stated) | . | . | -10.1 | 116.9
25 | CC(Sc1ncnc2ccccc12)C(=O)Nc1cccc(Cl)c1 (configuration not stated) | 108.8 | 73.9 | -29.6 | .
26 | CCN(C(=O)CSc1ncc2c(n1)-c1cc(Cl)ccc1N(Cc1ccccc1)S2(=O)=O)c1cccc(C)c1 | 78.9 | 89.5 | . | 103.6
27 | O=C1S/C(=C\c2cn(Cc3ccccc3)c3ccccc23)C(=O)N1CN1CCCCC1 | 92.3 | 83.3 | . | 100.9
28 | CC1=Nc2cc(C(=O)N3CCCCC3)ccc2Sc2ccc(C)cc21 | 106.4 | 83.7 | 9.9 | 103.7
29 | Cc1cccc(NC(=O)CSc2nc(-c3ccco3)nc3cc(=O)[nH]n23)c1 | 66.2 | 67.8 | . | 95.7
30 | CCC1=CC(c2ccccc2)NC(=S)N1 (configuration not stated) | 74.0 | 77.3 | -9.0 | .
31 | O=C(COc1ccc(-c2ccccc2)cc1)Nc1cccnc1 | 90.9 | 83.9 | -25.3 | .
32 | O=c1[nH]c(-c2ccc(-c3ccc([N+](=O)[O-])cc3Br)o2)nc2sc3c(c12)CCCC3 | . | . | -13.3 | 117.7
33 | CC1(C)CC(=O)C2=C(C1)N=C1SCCC(=O)N1C2c1ccc(Br)cc1 (configuration not stated) | 110.4 | 88.3 | -42.6 | .
34 | O=C(c1cc2c(s1)-c1ccccc1S(=O)(=O)C2)N1CCCC1 | 102.4 | 83.6 | . | 99.5
35 | CCOC(=O)c1cnc2c(F)ccc(F)c2c1Oc1cccnc1 | 103.8 | 100.8 | -6.6 | 102.3
36 | Clc1ccc(CSc2ncc(-c3ccc(Cl)cc3)[nH]2)cc1 | 88.1 | 68.5 | -23.3 | 106.3
37 | Cc1cccc(NC(=O)OC2CCCCC2)c1 | 67.3 | 62.9 | -1.3 | .
38 | CCC(=O)Nc1ccc(C2=CSC3=NS(=O)(=O)CCN23)cc1 | 96.7 | 92.4 | -7.2 | .
39 | Cc1cc(C)c(C#N)c(SCC(=O)Nc2ccc(S(N)(=O)=O)cc2)n1 | . | . | -31.3 | 100.0
40 | COc1cccc(CSc2nc(-c3ccccc3OC)nc3c2Cc2c(CO)cnc(C)c2O3)c1 | 110.9 | 95.6 | . | 102.5

Next results.
cpd | structure | Sa growth inh | Sa growth inh second temp | HCMV UL50-53 inh | GIV-Gai inh
41 | Cc1ccccc1C(=O)CC#N | 90.6 | 46.8 | -8.4 | .
42 | O=C(ON1C(=O)C2C3C=CC(O3)C2C1=O)c1ccc(Cl)s1 (configuration not stated) | 116.2 | 89.9 | -3.6 | 104.4
43 | COc1ccc(OC)c(NC(=O)c2ccc(CSc3nnnn3C)cc2)c1 | 106.3 | 86.5 | 1.2 | 97.5
44 | O=C(O)/C=C/C(=O)Nc1ccc(OC(F)F)cc1 | 81.9 | 88.8 | -12.3 | .
45 | COc1cc(C(=O)Nc2ccc(-c3nc4ccccc4s3)c(O)c2)ccc1OCc1ccc(Cl)cc1 | . | . | 0.9 | 102.5
46 | CCC1(C)Cc2ccccc2-c2[nH]c(=O)[nH]c(=O)c21 (configuration not stated) | . | . | -16.0 | 101.5
47 | CN(C(=O)CSc1nc2ncccc2o1)c1ccc(F)cc1 | 98.2 | 89.0 | . | 103.6
48 | N#CC(C#N)=Cc1cc2ccccc2nc1N1CCCCC1 | 92.7 | 83.1 | -11.2 | .
49 | O=c1[nH]c2c(s1)C1c3ccccc3OC3CCCC(S2)C31 (configuration not stated) | 27.4 | 12.1 | -141.5 | 71.7*
50 | O=C(Cc1csc(NC(=O)c2ccccc2)n1)NC1CCCCC1 | . | . | -8.5 | 106.2
51 | Cc1ccc(C(=O)c2cn(Cc3cccc(C)c3)c3nc(C)ccc3c2=O)cc1 | 97.2 | 92.4 | -14.7 | 103.9
52 | CCn1c(=O)n(-c2ccc(F)c(Cl)c2)c(=O)c2c3c(sc21)CN(C(C)=O)CC3 | 99.9 | 95.5 | 13.9 | 105.4
53 | COc1ccc(N2CCN(C(=O)Cn3c(-c4cccs4)cc4ccccc43)CC2)cc1 | 112.5 | 95.2 | . | 112.2
54 | C=CCSc1nnc(-c2ccc(C(F)(F)F)nc2C)o1 | 98.5 | 85.8 | . | 106.3
55 | O=C(NCc1ccco1)c1ccc2c(c1)N(Cc1ccc(F)cc1)C(=O)c1ccccc1S2=O (configuration not stated) | 99.2 | 86.3 | -31.9 | 101.9
56 | CCOc1ccc(OCC)c(NC(=O)c2nn(C)c(C(F)(F)F)c2Cl)c1 | . | . | 1.7 | 102.3
57 | CC1CCCCC1NC(=O)c1cc(=O)c2ccccc2o1 (configuration not stated) | 74.3 | 75.6 | -27.5 | .
58 | CCOC(=O)c1c(C)oc2c(Cl)cc(NS(=O)(=O)c3ccc(Cl)c(C)c3)cc12 | 106.3 | 104.4 | 12.2 | 101.9
59 | Cc1ccc(CN2CCN(C3CCN(S(=O)(=O)c4cccc(Cl)c4)CC3)C2=O)cc1 | . | . | -14.1 | 103.6
60 | O=C(NCCc1ccc(Cl)cc1)c1ccc2c(c1)nc1n2CCOC1 | 80.8 | 91.3 | . | 102.1
61 | CN=C1SC(CC(=O)Nc2cccc(C(=O)O)c2)C(=O)N1C (configuration not stated) | 98.2 | 92.5 | . | 93.7
62 | Cc1ccccc1N/C(=N\S(=O)(=O)c1ccccc1)c1ccccc1 | 101.4 | 91.3 | . | 102.4
63 | Cc1c(Cl)cccc1N=C1NC(=O)/C(=C/c2ccco2)S1 | 133.4 | 98.7 | 0.1 | 109.0
64 | Cc1cc(C)c(S(=O)(=O)N2CCN(Cc3ccc4c(c3)OCO4)CC2)cc1C | 79.8 | 91.0 | -23.9 | 100.6
65 | O=C(O)c1ccccc1C(=O)Nc1ccc(-n2ccc(C(F)(F)F)n2)cc1 | 123.2 | 87.8 | -16.2 | 98.0
66 | CC(=O)Nc1ccc(-n2ccnc2P(=O)(O)c2ccccc2)cc1 | 92.9 | 96.8 | -27.1 | .
67 | O=C(Cc1ccccc1)NC1CCCCCC1 | 82.0 | 102.4 | -6.9 | .
68 | NCCSc1ccc(F)cc1 | 123.2 | 87.0 | -2.2 | 101.9
69 | C=CCNC(=O)C(C)N1CCN(C)CC1 (configuration not stated) | 119.8 | 83.0 | 0.1 | 96.9
70 | O=C(CSc1nncn1-c1ccccc1)N1CCCC1c1ccc2c(c1)OCCO2 (configuration not stated) | 100.9 | 96.2 | -8.0 | .

Compound profiles, as listed above. Values in the order: Sa growth inh, Sa growth inh second temp, HCMV UL50-53 inh, GIV-Gai inh
Profile of `Cc1cc(C)c(S(=O)(=O)N2CCN(Cc3ccc4c(c3)OCO4)CC2)cc1C` : 79.8, 91.0, -23.9, 100.6
Profile of `O=C(NCCc1ccc(Cl)cc1)c1ccc2c(c1)nc1n2CCOC1` : 80.8, 91.3, ., 102.1
Profile of `O=C(Cc1ccccc1)NC1CCCCCC1` : 82.0, 102.4, -6.9, .

Continued:
cpd | structure | Sa growth inh | Sa growth inh second temp | HCMV UL50-53 inh | GIV-Gai inh
71 | CCc1nn(-c2ccccc2)c2nc(-c3ccccc3OC)c3cc(OC)c(OC)cc3c12 | 102.2 | 100.2 | -10.3 | 110.4
72 | C=CCn1c(COc2ccc(Cl)cc2)nnc1SCC(=O)N1CC(=O)Nc2ccccc21 | 83.6 | 94.4 | -11.0 | .
73 | COc1ccccc1C(=O)Nc1cccc2nsnc12 | 87.7 | 88.2 | -10.5 | 99.6
74 | COCOc1ccc(C(=O)O)cc1OC | 85.2 | 84.1 | -36.6 | 98.8
75 | O=C(CN1CCN(c2ccccc2)CC1)N1c2ccccc2CCc2ccccc21 | 102.5 | 81.0 | -30.3 | .
76 | c1ccc2c(CCNc3ncnc4nc[nH]c34)c[nH]c2c1 | 96.5 | 58.6 | 0.5 | 104.9
77 | Cc1cc(-c2ccc(C(C)C)c(S(=O)(=O)NCc3ccc(F)cc3)c2)on1 | 98.7 | 80.5 | -18.1 | 99.9
78 | Nc1cccnc1Sc1nc2cccnc2s1 | 77.0 | 48.4 | -0.8 | 100.7
79 | Cc1sc(-n2c(C)cc(/C=C3\SC(=S)NC3=O)c2C)c(C#N)c1C | 72.4 | 19.6 | -19.0 | 165.2
80 | O=C(c1ccc2cn[nH]c2c1)N1CCN(c2ccccc2)CC1 | 97.0 | 98.7 | -11.4 | 107.1
81 | CCCCN(C)C1=CC2=CC(=C(C#N)C#N)CCC2CC1 (configuration not stated) | 96.5 | 96.8 | -29.3 | .
82 | COC(=O)c1ccc(COC(=O)c2ccc(CN3CCCC3=O)cc2)cc1 | 75.6 | 85.8 | -19.9 | .
83 | C=CCNC(=O)c1cc(-c2ccco2)on1 | 94.4 | 88.5 | -10.9 | 101.5
84 | O=c1cc(NCc2ccco2)[nH]c(=O)n1-c1ccc(Br)cc1 | 111.4 | 75.2 | . | 113.8
85 | Cc1ccnc(NC(=O)c2cc3sc4ccccc4c3s2)c1 | . | . | 12.3 | 104.9
86 | Cc1ccc2c(Cl)c(C(N)=O)sc2c1 | 89.5 | 80.5 | -10.3 | 99.0
87 | CCOc1ccc(N2CC(NC(=O)C3CC3)CC2=O)cc1 (configuration not stated) | 82.5 | 88.8 | . | 94.3&96.7
88 | Cc1cc(S(=O)(=O)NC2CCCCC2)ccc1OCC(=O)NCC1CCCO1 (configuration not stated) | 106.6 | 103.1 | -32.2 | 108.2
89 | O=C(Nc1ccc2c(c1)OCO2)N1CCCC1c1ccc(F)cc1 (configuration not stated) | . | . | -15.5 | 100.0

Part of the list above in order of SMILES length, descending.
cpd | structure | Sa growth inh | Sa growth inh second temp | HCMV UL50-53 inh | GIV-Gai inh
88 | Cc1cc(S(=O)(=O)NC2CCCCC2)ccc1OCC(=O)NCC1CCCO1 (configuration not stated) | 106.6 | 103.1 | -32.2 | 108.2
89 | O=C(Nc1ccc2c(c1)OCO2)N1CCCC1c1ccc(F)cc1 (configuration not stated) | . | . | -15.5 | 100.0
85 | Cc1ccnc(NC(=O)c2cc3sc4ccccc4c3s2)c1 | . | . | 12.3 | 104.9
